Source: PubChem BioAssay (Broad Institute)
Env fusion inh: blocks HIV Env-driven cell-cell fusion; AID 651610; HeLa-JRFL Env/CEM21 cell fusion, luciferase; 360,000 compounds, 1.1% hits; inhibition, % at 12.3 µM;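 active = mean replicate inhibition score of at least 50 and every replicate individually at or above 50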;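 also: 0% = plate neutral controls and 100% = maraviroc near 300 nM; one replicate is shown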
Yeast UUG start: modulators of start codon recognition fidelity in yeast | 350,000 compounds, 0.13% hits | activity score, % at 18.7 µM | S. cerevisiae UUG-firefly luciferase reporter, luminescence/redox ratio | AID 602363;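 active = replicate mean at a twofold rise or more, about +100% in these data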;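 also: firefly luciferase made from a UUG start codon reports start codon fidelity; reporter light over untreated wells divided by growth signal over untreated wells; some hits fall short of that in this replicate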
Active calls of the source: *; [ ] = remark or other dose.

nr	molecule	Env fusion inh	Yeast UUG start
1	CCNC(=O)C[C@H]1CC[C@@H]2[C@H](COc3ccc(NC(=O)Nc4ccccc4C)cc3C(=O)N2C)O1	11.1[16.7 µM]	9.1
2	C[C@H](CO)N1C[C@H](C)[C@H](CN(C)C(=O)Nc2ccc(F)cc2)Oc2ccc(NS(=O)(=O)c3cn(C)cn3)cc2CC1=O	11.2[16.7 µM]	6.1
3	O=C(C[C@H]1CC[C@@H](NC(=O)C2CCC2)[C@H](CO)O1)Nc1nccs1	19.5[16.7 µM]	-23.3
4	O=C(C[C@@H]1C=C[C@H](NC(=O)Nc2ccccc2F)[C@H](CO)O1)NCc1ccc(F)cc1	3.8[16.7 µM]	-2.9
5	O=C(C[C@H]1CC[C@@H](NC(=O)C2CC2)[C@H](CO)O1)NCc1ccccc1Cl	-33.7[16.7 µM]	-10.0
6	C[C@H](CO)N1C[C@H](C)[C@@H](CN(C)C(=O)Nc2ccccc2)Oc2ccc(NC(=O)CCC(F)(F)F)cc2CC1=O	-0.4[16.7 µM]	-4.7
7	Cc1ccccc1S(=O)(=O)N(C)C[C@@H]1OCc2cn(nn2)CCCC(=O)N([C@@H](C)CO)C[C@H]1C	1.1[16.7 µM]	2.2
8	CN1CCN(C(=O)C[C@@H]2C[C@H]3c4cc(NC(=O)Nc5ccc(C(F)(F)F)cc5)ccc4O[C@H]3[C@H](CO)O2)CC1	-1.5[16.7 µM]	3.5
9	CN(C)CC(=O)N[C@@H]1CC[C@H](CCNC(=O)C2CCCC2)O[C@@H]1CO	-15.8[16.7 µM]	10.0
10	COc1ccccc1-c1cnc2c(c1)C(=O)N([C@H](C)CO)C[C@@H](C)[C@@H](CN(C)Cc1ccc(F)cc1)O2	18.0[16.7 µM]	0.4
11	C[C@H](NC(=O)C[C@@H]1CC[C@@H](NC(=O)CN2CCOCC2)[C@H](CO)O1)c1ccccc1	-1.4[16.7 µM]	-4.1
12	Cc1noc(C)c1NC(=O)Nc1ccc2c(c1)C(=O)N([C@@H](C)CO)C[C@@H](C)[C@H](CN(C)Cc1ccc3c(c1)OCO3)OCCCC[C@@H](C)O2	-5.7[16.7 µM]	13.3
13	COc1ccccc1-c1ccc([C@@H]2[C@@H](C#N)N(C(=O)C3CC3)[C@@H]2CO)cc1	7.9[16.7 µM]	2.6
14	O=C(C[C@@H]1C=C[C@H](NC(=O)c2cnccn2)[C@@H](CO)O1)NCc1ccccc1F	4.6[16.7 µM]	-0.7
15	COCC(=O)N(C)C[C@H]1Oc2ncc(C#Cc3ccccc3OC)cc2C(=O)N([C@H](C)CO)C[C@H]1C	-4.4[16.7 µM]	7.8
16	CC(=O)N(C)C[C@@H]1Oc2cc(C#Cc3ccncc3)ccc2S(=O)(=O)N([C@H](C)CO)C[C@H]1C	21.0[16.7 µM]	-4.8

Reformatted as labelled records: part of the list above
5) O=C(C[C@H]1CC[C@@H](NC(=O)C2CC2)[C@H](CO)O1)NCc1ccccc1Cl
  Env fusion inh: -33.7[16.7 µM]	Yeast UUG start: -10.0

8) CN1CCN(C(=O)C[C@@H]2C[C@H]3c4cc(NC(=O)Nc5ccc(C(F)(F)F)cc5)ccc4O[C@H]3[C@H](CO)O2)CC1
  Env fusion inh: -1.5[16.7 µM]	Yeast UUG start: 3.5

The list continues.
nr	molecule	Env fusion inh	Yeast UUG start
17	COc1ccc(NC(=O)Nc2ccc3c(c2)C(=O)N([C@@H](C)CO)C[C@H](C)[C@@H](CN(C)S(=O)(=O)c2ccc(C)cc2)O3)cc1	-21.3[16.7 µM]	8.5
18	C[C@@H]1CN([C@H](C)CO)S(=O)(=O)c2ccc(C3=CCCC3)cc2O[C@@H]1CN(C)C(=O)c1ccccc1	49.1[16.7 µM]	12.4
19	O=C(Nc1cccc(Cl)c1)N[C@@H]1CC[C@H](CCNC(=O)C2CCCC2)O[C@H]1CO	-17.6[16.7 µM]	7.7
20	Cc1noc(C)c1NC(=O)N(C)C[C@@H]1OCCCC[C@@H](C)Oc2ccc(NS(=O)(=O)c3c(C)noc3C)cc2C(=O)N([C@H](C)CO)C[C@@H]1C	11.7[16.7 µM]	-3.9
21	CN1CCN(C(=O)C[C@H]2C[C@@H]3c4cc(NC(=O)Nc5ccccc5)ccc4O[C@@H]3[C@@H](CO)O2)CC1	-1.4[16.7 µM]	-9.6
22	COCC1=C2[C@@H](c3ccccc3)OB(O)C[C@@H]2[C@@H]2C(=O)N(Cc3ccccc3)C(=O)[C@@H]2C1	16.5[16.7 µM]	-13.3
23	CO[C@@H]1CN(C)C(=O)c2ccc(NC(=O)c3ccc(F)cc3)cc2OC[C@H](C)N(C(=O)c2ccc(F)cc2)C[C@@H]1C	-2.2[16.7 µM]	23.4
24	O=C(C[C@H]1C=C[C@@H](NC(=O)Nc2ccc(C(F)(F)F)cc2)[C@@H](CO)O1)NCCN1CCCC1	17.8[16.7 µM]	-7.1
25	CCCNC(=O)N1C[C@@H](C)[C@@H](OC)CN(C)C(=O)c2cc(NS(=O)(=O)CC)ccc2OC[C@H]1C	6.4[16.7 µM]	7.6
26	C[C@@H]1CN([C@H](C)CO)C(=O)Cc2cc(NC(=O)CCCN(C)C)ccc2O[C@H]1CN(C)S(=O)(=O)c1cccs1	-5.5[16.7 µM]	4.5
27	C[C@@H]1CN([C@H](C)CO)C(=O)c2cc(-c3cccnc3)cnc2O[C@@H]1CN(C)C(=O)C1CCOCC1	12.6[16.7 µM]	-16.0
28	CCCNC(=O)N[C@H]1CC[C@H](CCn2cc(C3CC3)nn2)O[C@@H]1CO	-7.9[16.7 µM]	145.2*
29	C[C@H](CO)N1C[C@H](C)[C@H](CN(C)C(=O)Nc2ccccc2)Oc2ncc(-c3ccc(F)cc3)cc2C1=O	2.3[16.7 µM]	6.0
30	O=C(NCC[C@@H]1CC[C@@H](NS(=O)(=O)Cc2ccccc2)[C@@H](CO)O1)C1CCOCC1	5.1[16.7 µM]	-1.9
31	COc1ccc(S(=O)(=O)Nc2ccc3c(c2)CC(=O)N([C@@H](C)CO)C[C@@H](C)[C@@H](CN(C)C(=O)Nc2ccc(C(F)(F)F)cc2)O3)cc1	4.5[16.7 µM]	9.4
32	C[C@H](CO)N1C[C@H](C)[C@H](CN(C)C(=O)c2cccc(F)c2)Oc2ncc(-c3cccnc3)cc2C1=O	-28.1[16.7 µM]	9.6
33	Cc1noc(C)c1S(=O)(=O)Nc1ccc2c(c1)C(=O)N([C@@H](C)CO)C[C@@H](C)[C@H](CN(C)S(=O)(=O)c1cn(C)cn1)OCCCC[C@H](C)O2	8.9[16.7 µM]	-0.2
34	COc1ccccc1-c1ccc([C@@H]2[C@H](C#N)N(C(=O)C3CC3)[C@H]2CO)cc1	4.2[16.7 µM]	16.1
35	CC(=O)N(C)C[C@@H]1Oc2ncc(C#C[C@H](C)O)cc2C(=O)N([C@H](C)CO)C[C@@H]1C	-18.3[16.7 µM]	0.1
36	CC(=O)N[C@H]1CC[C@@H](CCNC(=O)C2CCC2)O[C@H]1CO	-1.5[16.7 µM]	-3.1
37	CNC[C@@H]1Oc2cc(C#CC(C)(C)O)ccc2S(=O)(=O)N([C@@H](C)CO)C[C@H]1C	-13.0[16.7 µM]	-24.8
38	C[C@@H]1CN([C@@H](C)CO)C(=O)c2cc(NC(=O)NC3CCCCC3)ccc2O[C@@H](C)CCCCO[C@H]1CN(C)S(=O)(=O)c1cn(C)cn1	-20.1[16.7 µM]	-7.1
39	COc1ccc(S(=O)(=O)N(C)C[C@H]2OCCCC[C@H](C)Oc3ccc(NC(=O)CCC(F)(F)F)cc3C(=O)N([C@H](C)CO)C[C@H]2C)cc1	-15.6[16.7 µM]	10.0
40	CO[C@H]1CN(C)C(=O)c2cc(NS(=O)(=O)c3ccccc3)ccc2OC[C@@H](C)N(Cc2ccccn2)C[C@H]1C	-6.1[16.7 µM]	-9.8
41	COc1ccccc1-c1ccc2c(c1)O[C@@H](CN(C)C)[C@@H](C)CN([C@H](C)CO)S2(=O)=O	-9.9[16.7 µM]	-0.3
42	O=C(Nc1ccccc1F)N[C@H]1CC[C@H](CCNS(=O)(=O)c2ccccc2)O[C@@H]1CO	0.9[16.7 µM]	9.2
43	CCCN(C)C[C@@H]1OCCCC[C@H](C)Oc2ccc(NC(=O)Nc3ccc(C(F)(F)F)cc3)cc2C(=O)N([C@@H](C)CO)C[C@@H]1C	12.6[16.7 µM]	4.1
44	C[C@H](O)C#Cc1cnc2c(c1)C(=O)N([C@@H](C)CO)C[C@@H](C)[C@H](CN(C)C(=O)c1ccccc1F)O2	6.1[16.7 µM]	7.4
45	C[C@@H]1CN([C@H](C)CO)C(=O)Cc2cc(NC(=O)C3CCCCC3)ccc2O[C@H]1CN(C)Cc1ccc(C(F)(F)F)cc1	23.7[16.7 µM]	12.4
46	COc1ccc(S(=O)(=O)Nc2ccc3c(c2)C(=O)N([C@@H](C)CO)C[C@H](C)[C@H](CN(C)S(=O)(=O)c2cn(C)cn2)OCCCC[C@@H](C)O3)cc1	-3.7[16.7 µM]	-8.2
47	CC(C)NC(=O)Nc1ccc2c(c1)C(=O)N([C@H](C)CO)C[C@H](C)[C@@H](CN(C)C(=O)Nc1ccc(F)cc1)OCCCC[C@@H](C)O2	0.6[16.7 µM]	-6.0
48	C[C@H](O)C#Cc1cnc2c(c1)C(=O)N([C@H](C)CO)C[C@@H](C)[C@@H](CN(C)Cc1ccccn1)O2	-25.3[16.7 µM]	-25.3
49	COCCOC(=O)N1C(=O)[C@@]2(c3cc(C#CCC(C(=O)OC)C(=O)OC)ccc31)[C@H](C(=O)Nc1nc3ccccc3s1)[C@H]1C(=O)O[C@H](c3ccccc3)[C@H](c3ccccc3)N1[C@@H]2c1ccccc1OCCO	-3.4[16.7 µM]	-5.1
50	Cc1ccc(S(=O)(=O)N(C)C[C@@H]2Oc3c(NS(=O)(=O)c4cccs4)cccc3C(=O)N([C@@H](C)CO)C[C@H]2C)cc1	-14.2[16.7 µM]	1.0
51	COc1ccc(CN(C)C[C@@H]2Oc3ccc(NC(=O)C4CCCCC4)cc3C(=O)N([C@@H](C)CO)C[C@H]2C)cc1	-19.5[16.7 µM]	23.4
52	CN1C(=O)c2cc(NC(=O)c3cccc(F)c3)ccc2OC[C@H]2O[C@@H](CC(=O)O)CC[C@@H]21	-6.1[16.7 µM]	-4.3
53	C[C@@H]1CN([C@H](C)CO)C(=O)c2cc(NS(=O)(=O)c3cccs3)ccc2O[C@@H]1CN(C)Cc1ccc(Cl)c(Cl)c1	8.5[16.7 µM]	11.1
54	COCc1cn(CC[C@H]2CC[C@H](NC(=O)c3ccncc3)[C@@H](CO)O2)nn1	-7.8[16.7 µM]	-2.6
55	COc1ccc(S(=O)(=O)Nc2ccc3c(c2)C(=O)N([C@@H](C)CO)C[C@@H](C)[C@@H](CN(C)C(=O)Nc2ccccc2)OCCCC[C@@H](C)O3)cc1	-49.8[16.7 µM]	3.6
56	CCCNC(=O)N(C)C[C@H]1Oc2ncc(-c3ccccc3F)cc2C(=O)N([C@@H](C)CO)C[C@H]1C	-13.8[16.7 µM]	2.5

Looked up by compound from above (4):
nr	molecule	Env fusion inh	Yeast UUG start
54	COCc1cn(CC[C@H]2CC[C@H](NC(=O)c3ccncc3)[C@@H](CO)O2)nn1	-7.8[16.7 µM]	-2.6
51	COc1ccc(CN(C)C[C@@H]2Oc3ccc(NC(=O)C4CCCCC4)cc3C(=O)N([C@@H](C)CO)C[C@H]2C)cc1	-19.5[16.7 µM]	23.4
56	CCCNC(=O)N(C)C[C@H]1Oc2ncc(-c3ccccc3F)cc2C(=O)N([C@@H](C)CO)C[C@H]1C	-13.8[16.7 µM]	2.5
50	Cc1ccc(S(=O)(=O)N(C)C[C@@H]2Oc3c(NS(=O)(=O)c4cccs4)cccc3C(=O)N([C@@H](C)CO)C[C@H]2C)cc1	-14.2[16.7 µM]	1.0

Next compounds.
nr	molecule	Env fusion inh	Yeast UUG start
57	O=C(C[C@H]1C=C[C@@H](NC(=O)Nc2cc(F)ccc2F)[C@H](CO)O1)NCCCN1CCOCC1	5.0[16.7 µM]	-13.0
58	C[C@H]1CN([C@@H](C)CO)S(=O)(=O)c2ccc(/C=C/c3ccccc3)cc2O[C@@H]1CN(C)C(=O)c1ccncc1	16.6[16.7 µM]	-4.8
59	Cc1ccc(S(=O)(=O)N(C)C[C@@H]2OCCCC[C@@H](C)Oc3ccc(NC(=O)CCCN(C)C)cc3C(=O)N([C@H](C)CO)C[C@H]2C)cc1	-11.2[16.7 µM]	17.5
60	O=C(C[C@H]1CC[C@H](NC(=O)Cc2ccccn2)[C@H](CO)O1)NCCCN1CCOCC1	-2.3[16.7 µM]	-15.9
61	C[C@@H]1CCCCO[C@@H](CN(C)C(=O)Nc2ccc(F)cc2)[C@@H](C)CN([C@H](C)CO)C(=O)c2cc(NC(=O)c3ccccc3)ccc2O1	-6.2[16.7 µM]	-8.7
62	COc1cccc(NC(=O)N[C@@H]2CC[C@H](CC(=O)NCc3ccncn3)O[C@@H]2CO)c1	13.7[16.7 µM]	-9.9
63	C[C@@H]1CN([C@@H](C)CO)C(=O)c2cc(NC(=O)Cn3cnnn3)ccc2O[C@H]1CN(C)C(=O)Nc1ccc(F)cc1	2.4[16.7 µM]	6.0
64	CC(C)C#Cc1cnc2c(c1)C(=O)N([C@@H](C)CO)C[C@H](C)[C@H](CN(C)C(=O)Nc1cc(F)ccc1F)O2	3.5[16.7 µM]	12.4
65	CC(C)C(=O)Nc1ccc2c(c1)C(=O)N(C)[C@@H]1CC[C@@H](CC(=O)N[C@@H](C)c3ccccc3)O[C@H]1CO2	18.9[16.7 µM]	5.2
66	C[C@@H]1CCCCO[C@H](CN(C)C(=O)Cc2ccccc2)[C@@H](C)CN([C@@H](C)CO)C(=O)c2cc(NC(=O)Nc3ccc4c(c3)OCO4)ccc2O1	9.0[16.7 µM]	-6.2
67	C[C@@H]1CN([C@H](C)CO)C(=O)c2cc(NC(=O)c3ccncc3)ccc2O[C@@H]1CN(C)Cc1ccc2c(c1)OCO2	18.0[16.7 µM]	-2.6

Some of the compounds tested; count on the stated rates, not on these rows.
